Compound activity as filed in PubChem.
gsp ag: gsp mutant agonism; gsp mutant cells, cAMP HTRF, 30 min; control for the full effect not named in the record; Potency, µM (titrated, usually from 76.9 µM), inactives show at the highest dose activation (cAMP increase), most hits filed as activators; 340,000 tested, 0.13% active; active = well fitted activation curve with a large enough effect; inconclusive = small, poorly fitted or top-dose-only effect, or another doubt; inactive = no such curve, though single readings can be large or run the other way; cell line not stated here;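 note: phosphodiesterase inhibitor Ro 20-1724 added with compounds to block cAMP breakdown; potency is the fitted concentration of half-maximal effect; nearly all actives have a fitted effect of over 60% in size; about a fifth of the inactives were tested at one dose only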
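Cells stably selected in G418 were plated at 2000/well, grown 16-24 hr, then given compounds in DMSO with the PDE inhibitor […] (300 uM solution added) for 30 min at 37C; cAMP was read by HTRF.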
ClpP mod: qHTS Assay for Activators of ClpP. purified B. subtilis ClpP, FRET peptide cleavage, 20 min. 340,000 tested, 1.9% active. AID 651965, 2013. Potency, µM (titrated, usually from 57.5 µM), without a hit: at the highest dose activity change, negative = active; active = well fitted falling curve with a large enough effect; inconclusive = small, poorly fitted or top-dose-only effect; inactive = no such curve, though single readings can be large or run the other way; note: potency is the fitted concentration of half-maximal effect; the source files actives as falling curves though it sought activators and does not explain the sign; nearly all actives have a fitted effect of over 65% in size; many hits overshoot -100%
Target sequence (P80244 whole entry, looked up): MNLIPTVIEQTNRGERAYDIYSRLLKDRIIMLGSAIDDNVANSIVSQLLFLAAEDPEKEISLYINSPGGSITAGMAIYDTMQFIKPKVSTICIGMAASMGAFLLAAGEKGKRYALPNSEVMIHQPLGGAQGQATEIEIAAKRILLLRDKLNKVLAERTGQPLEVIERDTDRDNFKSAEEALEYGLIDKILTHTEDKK
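FRET quenching reversal measured ClpP activation: 10 microg/mL B. subtilis ClpP at pH 8 with the FRET-FV decapeptide, read at 430 nm after 320 nm excitation. The 20-min minus 0-min signal was scaled between DMSO/no-enzyme wells and ADEP (5.8 microM final).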
D2 potentiator: human D2 receptor positive allosteric modulation; DiscoveRx D2 beta-arrestin cells, luminescence, 90 min; 100% = 57 uM dopamine signal; 360,000 tested, 0.23% active; potentiation, % (no concentration beside the values); P14416; active = potentiation of 50% or more; inconclusive = 30% to 50%; inactive = 30% or less;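 note: compound concentration not given in the record; tested on top of an EC20 dose of dopamine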
Target sequence (P14416 whole entry, looked up): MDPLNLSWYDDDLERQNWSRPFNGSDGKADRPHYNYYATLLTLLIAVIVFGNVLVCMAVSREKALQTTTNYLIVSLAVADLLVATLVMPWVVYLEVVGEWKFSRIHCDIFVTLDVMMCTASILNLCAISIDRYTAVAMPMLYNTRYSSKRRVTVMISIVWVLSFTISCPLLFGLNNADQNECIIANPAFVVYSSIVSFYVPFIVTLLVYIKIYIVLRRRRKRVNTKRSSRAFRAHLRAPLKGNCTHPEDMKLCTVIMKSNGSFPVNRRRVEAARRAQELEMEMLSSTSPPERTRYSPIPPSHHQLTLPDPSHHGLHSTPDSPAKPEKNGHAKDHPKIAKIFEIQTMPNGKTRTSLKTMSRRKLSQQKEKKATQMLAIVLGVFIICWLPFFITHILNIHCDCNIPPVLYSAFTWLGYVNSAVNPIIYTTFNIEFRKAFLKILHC
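D2 cells co-treated with compound plus 50 nM dopamine (EC20) for 90 min at 37 deg C to detect potentiation. Beta-arrestin recruitment was read as enzyme-fragment luminescence after 1 h at ambient temperature. Full response was set by 57 uM dopamine.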
TRPV1 potentiator: human TRPV1 potentiation. TRPV1-expressing cells, Fluo-8 calcium influx, capsaicin EC20 potentiation; host cell line not named in the record; control for the full effect not named in the record. 320,000 tested, 0.02% active. Q8NER1. potentiation, % at 8.33 µM. AID 540277; active means potentiation above 80%; inconclusive means 30% to 80%; inactive means below 30%; note: 0% is about no effect
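Cells expressing TRPV1 were dye-loaded with Fluo-8 and read kinetically: 10 s baseline, 3 min after compound (agonist portion), then 2 min after EC20 capsaicin (allosteric enhancer portion). Calcium-bound dye fluorescence at 480/520 nm.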
gsp antagonist: antagonizes gsp, the McCune-Albright syndrome mutation; gsp-mutant cells, cAMP HTRF, 30 min; control for the full effect not named in the record; Potency, µM (top dose mostly 76.9 µM), without a hit: at the highest dose activity change, negative = inhibition, actives largely listed as inhibitors; 340,000 tested, 0.4% active; AID 624288; active = falling curve of any shape with a large fitted effect; inconclusive = falling curve, mostly with a smaller effect; inactive = flat or rising curve; cell line not stated here;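 note: intracellular cAMP measured with PDE inhibitor Ro 20-1724 present during compound exposure; potency is the fitted concentration of half-maximal effect; % is set by controls: 0 for no effect and ±100 for the full control effect; nearly all actives have a fitted effect of over 65% in size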
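Measurement of cellular cAMP by homogeneous time-resolved fluorescence following a 30 min compound exposure at 37C. The PDE inhibitor […] was present throughout; the assay buffer was DPBS with 0.05% BSA and 0.005% Tween 20.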
Menin MLL FP FL: menin-MLL binding inhibition, fluorescein peptide; FP activity change, % at 61.4 µM; Fluorescence polarization, fluorescein-MLL peptide displacement from menin; 290,000 tested, under 10 active; AID 1766; inconclusive = falling polarisation curve, or a change in total fluorescence; inactive = total fluorescence flat and polarisation flat or rising; no compound was filed as active; the % refers to the polarisation; negative = inhibition;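 note: % of control where 0% means no effect; inhibitors lower the polarisation; unlabelled MLL peptide was the positive control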
Sfp PPTase inh: inhibitors of Bacillus subtilis Sfp phosphopantetheinyl transferase; 310,000 tested, 3.5% active; Q9F4F7; Biochemical Sfp PPTase activity, qHTS; AID 1490; Potency, µM, for inactives: max response, negative = inhibition, hits mostly inhibitors; active = well fitted inhibition curve with a large enough effect; inconclusive = small, poorly fitted or top-dose-only effect, or another doubt; inactive = no such curve, though single readings can be large or run the other way;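 note: the enzyme is Sfp with the accession as filed and its product quenches rhodamine fluorescence; potency is the fitted concentration of half-maximal effect; 0% = enzyme reaction without inhibitor and -100% = no enzyme wells; top concentration of the series not given in the record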
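After 15 min at room temperature with compound, 15 nM Sfp received 5 uM rhodamine-CoA plus 12.5 uM BHQ-2-ybbR (50 mM Hepes pH 7.6, 10 mM MgCl2). Rate came from the fluorescence difference over 30 min, ex 525/em 598 nm.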
The depositor's hits bear a star; ? = inconclusive; / = no result given; & = joins results of further samples; [ ] = another dose, or the depositor's remark.

The line under a structure holds: gsp antagonist, ClpP mod, gsp ag, D2 potentiator, Sfp PPTase inh, Menin MLL FP FL, TRPV1 potentiator
- O=C(Nc1ccccc1N1CCN(C(=O)c2ccccc2)CC1)c1cccc(Cl)c1
 : ?, 0.2%, -2%, -13, -3%, -1.6, -15
- COc1ccc(OC)c(S(=O)(=O)NCCc2csc(-c3cccnc3)n2)c1
 : 0%, -1.0%, 18%, -11, 10%, 2.2, 5
- C=CCNC(=S)N/N=C/c1ccc(C(C)(C)C)cc1
 : 3%, /, -28%, 2, 15%, 6.6, 0
- CCN(c1ccccc1)S(=O)(=O)c1cccc(C(=O)OCC(=O)c2c(N)n(C)c(=O)n(C)c2=O)c1
 : -9%, -2.1%, 33%, -8, /, /, /
- COc1ccccc1N1CCN(C(=O)C2CCC(Cn3c(=S)[nH]c4ccccc4c3=O)CC2)CC1 (stereo not given)
 : 4%, -4.0%, -18%, 14, 4%, 0.1, -10
- O=C(Nc1nc2ccccc2[nH]1)c1ccc(Cl)c([N+](=O)[O-])c1
 : -22%, /, -58%[inhibitor], 1, 14%, 5.5, 1
- COC(=O)[C@@]1(Cc2ccc(F)cc2)[C@H]2c3cc(C(=O)N4CCCC4)n(CCc4c[nH]c5ccc(OC)cc45)c3C[C@H]2CN1C(=O)c1ccccc1
 : /, /, /, /, 15%&7%, 7.2&12, 3
- Cc1ccc(NC(=O)C(C)OC(=O)COc2cccc(C(F)(F)F)c2)cc1S(=O)(=O)N1CCOCC1 (stereo not given)
 : 12%, -1.0%, -22%, -3, /, /, /
- Cc1cccc(N2C(S)=C(C#N)C(=O)NC2c2ccco2)c1 (stereo not given)
 : -6%, /, -14%, -3, -7%, -0.5, -3
- CC(C)c1nnc(N2C(=O)C(O)=C(C(=O)c3cccs3)C2c2ccccc2)s1 (stereo not given)
 : ?, 0.3%, ?, -2, ?, ?, -5
- CC1CCC(N(CCCN)Cc2ccco2)CC1C (stereo not given)
 : 15%, /, -7%[15.4 µM], -12, 3%, -1.4, -5
- Fc1cccc(Cl)c1Cn1nnc2c(NCc3ccccn3)ncnc21
 : 1%, -0.2%, 2%, 1, 14%, 2.2, 1
- COc1ccccc1NC(=O)c1ccc(NC(=O)C2CC2)cc1
 : 5%, -1.4%, -13%[15.4 µM], -6, /, /, /
- COc1ccc(CN2CCN(CC3CC3)CC2CCO)cc1C (stereo not given)
 : 11%, 1.6%, -48%[inhibitor], -58, 5%, -2.9, -4
- COCCCN1C(=O)C(CC(=O)NCc2cccc3ccccc23)CC(C(=O)N(C)C)=C1C (stereo not given)
 : /, -4.1%, -12%, -3, /, /, /
- Cn1c(SCC(=O)NCc2ccco2)nnc1C1CC1
 : 4%, 0.4%, -1%, 1, /, /, /
- CC1(C)CC2(C)OC(=N)C1(C#N)C2(C#N)C#N (stereo not given)
 : 5%, ?, 10%[15.4 µM], -9, -5%, -0.5, 1
- Cc1nc(SCC(=O)NCc2ccco2)nc(C)c1C
 : -14%, 1.0%, 1%, -3, 50µM*, 5.5, -17
- CCCC(=O)Nc1sc(C(=O)OC)c(C)c1C(N)=O
 : 8%, -0.5%, -23%, -14, 28µM*, 0.4, -9
- C(=C\c1ccccc1)/CSc1nnc(-c2cnccn2)n1Cc1ccco1
 : -1%, -2.1%, -7%, -9, 35µM*, 4.9, 4
- O=C(Nc1ccc(-c2ccccc2)cc1)c1ccc2c(c1)S(=O)(=O)c1ccccc1C2=O
 : 4%, -2.6%, -4%, -12, /, /, /
- Cn1c(N)cc(-c2ccc(F)cc2)c(C#N)c1=O
 : 6%, 0.1%, ?, -2, 3%, 4.2, 3
- CCOC(=O)c1sc2nc(C)nc(NCc3ccccc3)c2c1C
 : -20%, 4.1%, 11%, -3, -28%, 5.2, -3
- CCc1nc2ccccc2c(C(=O)OCC(=O)NC2CC2)c1C
 : 7%, -6.5%, -44%[inhibitor], -1, /, /, /
- CC1CN(Cc2cn(C)nc2-c2ccc(Oc3ccccc3)cc2)CCN1C (stereo not given)
 : 6%, -1.9%, 11%[15.4 µM], -11, 7%, -3.7, 15
- Cc1cccn2c(=O)c(C=O)c(N3CCCCCC3)nc12
 : -19%, -1.3%, -25%, -10, -3%, 7.1, -5
- O=C(Nc1ccccc1)c1sccc1Oc1ccc([N+](=O)[O-])cc1F
 : ?, /, -41%[inhibitor], 20, -12%, -0.6, 15
- OCC1(CCOc2ccccc2)CCN(Cc2ccc3c(c2)OCCO3)CC1
 : 11%, 1.2%, -23%, -21, 11%, -3.4, -15
- Nc1cc(Cl)cc2c1-c1ccc(Cl)cc1C2
 : -25%, /, -3%, 3, /, /, /
- CN(C)c1ccc(N=C/C=C2\N(C)c3ccccc3C2(C)C)cc1
 : ?, -2.4%, -2%, -29, ?, ?, /
- COc1ccc(C(=O)CNC2=NCCC2)cc1
 : 8%, /, 3%[15.4 µM], -18, 4%, -0.6, 17
- COc1cccc(C(=O)NCCNC(=O)c2ccc(C)nc2)c1
 : 7%, /, 12%, -1, 14%, 3.0, -9
- CCOC(=O)C1C(=O)C=C(N2CCOCC2)CC1c1cccc(OC)c1 (stereo not given)
 : -21%, -0.8%, -25%, -8, -14%, 3.2, 6
- CNC(=S)N(Cc1ccc2c(c1)OCO2)C1CC(=O)N(c2ccccc2)C1=O (stereo not given)
 : 1%, -0.3%, 19%, 3, -12%, 1.7, -12
- CSc1ccccc1NC(=O)CN(C)C(=O)c1c(C)nn(Cc2ccccc2)c1C
 : -10%, 2.8%, ?, -17, /, /, 8
- O=C(NCCOC(=O)C1COc2ccccc2O1)c1cccnc1 (stereo not given)
 : 0%, -1.1%, -33%, 9, 22%, -2.4, -1
- C#CCOc1coc(COC(=O)c2ccccc2)cc1=O
 : -17%, 0.6%, -9%[15.4 µM], -14, 4%, 1.6, 8
- COc1ccc(OC)c(CNc2nc3ccccc3n2CCN2CCCCC2)c1
 : -16%, -1.5%, -61%[inhibitor], -19, 79µM*, -1.3, -23
- COc1cccc(C(=O)NCCS(=O)(=O)NCC2CCCO2)c1 (stereo not given)
 : 7%, -2.7%, -17%, -16, /, /, -2
- CC(C)CNC(=O)c1ccc(NC(=O)c2ccccc2[N+](=O)[O-])cc1
 : 12%, -2.5%, -16%, -7, -1%, 1.4, -4
- CCOC(=O)COc1cc(=O)n(CC)c2ccccc12
 : 1%, -11%, -2%, -7, 5%, -0.9, -4
- FC(F)(F)c1cccc(N2CCN(c3nnnn3-c3ccccc3)CC2)c1
 : -8%, -1.3%, -13%, 8, 9%, 1.8, -21
- COc1ccccc1N1CCN(C(=O)Nc2cccc(C)c2)CC1
 : -16%, -0.6%, -33%, -12, 5%, 1.9, -20
- CCOc1cc(C(=O)OCC(=O)Nc2cc(C)on2)ccc1OCC(C)C
 : -1%, /, -5%[15.4 µM], -11, 0%, 1.7, 5
- CCCC(=O)C1=C(O)C(C(=O)OC)C(C)(C)CC1=Nc1ccccc1 (stereo not given)
 : -22%, -8.1%, 4%, -14, -1%, 0.6, -16
- Cc1cc(C)n(CC(C)Nc2nc3nonc3nc2N2CCCCC2)n1 (stereo not given)
 : 3%, /, 23%[15.4 µM], -2, 8%, -1.9, -4
- CCOc1cc(/C=N/Nc2nnc(C)n2N)ccc1O
 : -12%, -8.9%, 16%, 0, 56µM*, -25, -3
- CC1CN(C(=O)COC(=O)c2nn(-c3ccccc3)c(=O)c3ccccc23)CC(C)O1 (stereo not given)
 : -9%, -2.4%, 17%, -1, 15%, -4.1, 9
- CCOC(=O)C1CCCC12Nc1cccc3cccc(c13)N2 (stereo not given)
 : -12%, /, ?, 6, /, /, /
- CN(C)C(CNC(=S)Nc1ccccc1Cl)c1cccnc1 (stereo not given)
 : 6%, /, 6%[15.4 µM], 2, 2%, -3.5, 4
- CN1C(=O)C(O)(CC(=O)c2cccc(-n3cccc3)c2)c2ccccc21 (stereo not given)
 : -10%, -3.5%, -4%, -19, 9%, -1.2, 2
- O=C(CNC1C(=O)Nc2ccccc21)Sc1ccccc1 (stereo not given)
 : 4%, 1.7%, -41%[inhibitor], -16, -11%, 2.0, 9
- CCOCCCNC(=O)C(c1ccc(OC)cc1)N(Cc1ccc2c(c1)OCO2)C(=O)c1ccccn1 (stereo not given)
 : -3%, -1.0%, -1%[15.4 µM], -3, 0%, 2.1, -4
- COc1ccccc1OCCCCCc1c(C)n[nH]c1C
 : 35µM*, -3.6%, -13%, 3, -6%, -0.1, -9
- O=C(NCCCN1CCCC1=O)c1cc(S(=O)(=O)N2CCN(c3ccccc3)CC2)ccc1Cl
 : -9%, 28µM*, -1%, -3, /, /, /
- Cc1[nH]c2ccc(C(=O)NCCCN(C)C3CCCCC3)cc2c1C
 : 5%, -1.0%, -46%[inhibitor], -40, -3%, 0.5, -15
- Cc1ccc2c(c1)C(c1ccncc1)=NNC(c1ccc(F)cc1)=N2
 : -5%, /, -2%[15.4 µM], -6, 6%, -2.0, -7
- O=C1CC(=O)Nc2cc(S(=O)(=O)N3CCOc4ccccc43)ccc2N1
 : 4%, -1.5%&-1.0%, -23%, -3, 5%, -1.7, -19
- Cc1cc(C(=O)OCC(=O)Nc2nc(-c3ccccc3)cs2)c(C)o1
 : 6%, -3.5%, -3%, -24, 7%, -3.1, -3
- COc1ccc(N2CCN(CC(O)COc3ccc([N+](=O)[O-])cc3)CC2)cc1 (stereo not given)
 : 13%, /, -1%[15.4 µM], -18, 0%, 1.7, 3

(listing goes on)
The line under a structure holds: gsp antagonist, ClpP mod, gsp ag, D2 potentiator, Sfp PPTase inh, Menin MLL FP FL, TRPV1 potentiator
- CN(C(=O)c1ccccc1C(=O)OCC(=O)Nc1ccc(OC(F)F)cc1)c1ccccc1
 : 2%, -0.1%, 11%, 3, /, /, 4
- OCC[C@@H]1C[C@@H](O)[C@H](O)[C@]2(Cc3ccccc3CCO2)O1
 : 8%, -0.9%, ?, -4, 12%, 2.9, 7
- CCOc1ccccc1N1CCN(Cc2ccc(OC)c(OC)c2OC)CC1
 : 5%, -2.4%, -8%, -20, -12%, 0.0, 15
- CC(C)(C)OC(=O)NCCCCCNC(=O)c1nc[nH]c1C(=O)NCc1ccccc1
 : -9%, -1.7%, /, -8, /, /, 10
- COc1ccc(NC2SC(=O)N(C)C2=O)cc1 (stereo not given)
 : 3%, 1.2%, 20%, -8, 12%, 2.9, 3
